HNF4A DNA FP = change in binding of human HNF4A to DNA, primary screen, biochemical, fluorescence polarization, FITC-DNA. 1 h. 360,000 tested, 0.3% active. activity change, % at 10 µM. AID 1224865, 2016. Hepatocyte nuclear factor 4-alpha (Homo sapiens), P41235; in the data active = activity change above about 30%, passing the limit was not always enough;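 note: controls were the assay level and a saturating level of protein; the project sought stronger binding though the title names inhibitors; some compounds called inactive have numbers as strong as hits; positive values seem to mean higher polarization but the record does not say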
Target sequence (P41235 whole entry, looked up): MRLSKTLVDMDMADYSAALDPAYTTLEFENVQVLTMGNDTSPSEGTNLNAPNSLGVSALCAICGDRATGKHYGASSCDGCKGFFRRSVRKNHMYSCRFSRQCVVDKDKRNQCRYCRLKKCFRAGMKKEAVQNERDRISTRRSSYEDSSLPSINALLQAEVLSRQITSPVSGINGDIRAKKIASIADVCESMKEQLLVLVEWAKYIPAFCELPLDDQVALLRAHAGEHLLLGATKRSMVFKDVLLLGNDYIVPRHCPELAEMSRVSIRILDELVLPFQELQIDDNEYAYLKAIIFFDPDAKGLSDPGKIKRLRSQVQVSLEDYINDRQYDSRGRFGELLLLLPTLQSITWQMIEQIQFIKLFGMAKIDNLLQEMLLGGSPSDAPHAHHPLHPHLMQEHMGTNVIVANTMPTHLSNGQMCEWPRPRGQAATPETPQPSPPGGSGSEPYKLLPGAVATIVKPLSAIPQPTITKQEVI
A1 inh = caspase 3/7 activation in MEF A1-2A-BIM cells, primary screen, A1 inhibitor project, cell-based, luminescence, HTS. 330,000 tested, 0.066% active. Caspase-Glo 3/7 luminescence, 3 h; percent of clofoctol response, vehicle zero. AID 2462, 2010. caspase activation, % (test concentration not listed);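 active = over half of replicate activation scores above 10%, or exactly half above 10 with the replicate mean above 10; inconclusive = replicate mean below 10 yet half the replicates above 10; inactive = over half of replicates below 10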;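 note: wells of about 30 µL received 50 nL stock; many hits fall short of the cut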
LANA-H2A inh = blockers of LANA interaction with H2A/H2B – biochemical, FP readout, HTS, primary screen; inhibition, % (no concentration beside the values); AID 2629, 2010; cell-free LANA-H2A/H2B peptide, fluorescence polarization; 320,000 tested, 0.6% active; in the data active = inhibition mostly above about 10%, no sharp cut-off; inactive = mostly below about 6.7%;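 note: stock transfer was 7.5 nL into about 10 µL; 0% = median of vehicle wells and 100% = median of positive control wells; one replicate is shown; the record names a cut of 25% in any replicate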
UCH37 inh = inhibitors of human UCH37 deubiquitinase, primary screen, biochemical, Ub-AMC cleavage, fluorescence | purified proteasome/UCH37 | inhibition, % (concentration not given with the values) | 330,000 tested, 0.33% active | AID 588478, 2011;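 active = mean of two replicates above 20%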;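 note: 0% = compound-free wells with enzyme and 100% = wells lacking proteasome; stock transfer was 100 nL into about 20 µL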
Target sequence (Q9Y5K5 whole entry, looked up): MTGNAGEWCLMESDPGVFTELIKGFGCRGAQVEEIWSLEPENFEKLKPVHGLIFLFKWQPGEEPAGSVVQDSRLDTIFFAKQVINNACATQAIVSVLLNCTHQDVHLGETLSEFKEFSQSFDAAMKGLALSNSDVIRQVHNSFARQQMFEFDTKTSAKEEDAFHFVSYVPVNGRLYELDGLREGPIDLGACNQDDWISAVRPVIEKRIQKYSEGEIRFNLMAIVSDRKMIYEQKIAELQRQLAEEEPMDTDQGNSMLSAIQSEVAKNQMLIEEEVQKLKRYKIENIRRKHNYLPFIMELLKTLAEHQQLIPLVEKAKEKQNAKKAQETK
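assay system = human UCH37 enzyme supplied as purified proteasome complex | amount = proteasome at 0.15 nM in the dispensed enzyme solution | schedule = 30 min compound-proteasome preincubation then 25 min substrate reaction, room temperature | measured by = fluorescence, ex 355 nm, em 460 nm | benchmarks = no-proteasome wells (full inhibition) and compound-free wells (no inhibition)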
B2AR ag = beta2AR agonists driving receptor internalization, primary screen, cell-based, FAP fluorogen, flow cytometry; Beta-2 adrenergic receptor (Homo sapiens), P07550; Am2.2-beta2AR cells; reference of the scale not given here; response, % (test concentration not listed); 340,000 tested, 0.43% active; AID 504454, 2011;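 active = response above a set limit, near 3 SD of response in nonfluorescent compounds, cut at about 42% in these data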;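 note: stock transfer was 100 nL into about 11 µL; a reference agonist was the positive control; negative values mostly stem from fluorescent compounds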
Vif A3G = inhibitors of Vif binding to APOBEC3G peptide, primary screen, biochemical, TR-FRET, GST-Vif 1-94, biotin-A3G peptide, dose response retest (AID 1117319); 260,000 tested, 0.57% active; Virion infectivity factor (Human immunodeficiency virus type 1 group M subtype B (isolate …; TR-FRET GST-Vif / biotin-A3G peptide binding; higher % means a stronger effect; test concentration not given here; strong numbers were not always called active; inhibition, %; hits with a dose series show IC50 in µM;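 active = above the screen mean plus three standard deviations and confirmed in dose response; inconclusive = results disagree or hit not tested in dose response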;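 note: Vif residues 1-94 fused to GST binding biotinylated APOBEC3G peptide 110-148; 0% = full assay without inhibitor and 100% = GST in place of GST-Vif; retest series ran down from 100 µM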
E coli growth = E. coli growth inhibition, primary screen, OD600 | 330,000 tested, 0.21% active | OD600 absorbance (concentration not given with the values) | Escherichia coli growth, 23 h; hits give low values;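 active = OD600 absorbance below the run mean of sample wells minus 3.6 SD, in any replicate, cut at about 0.56 in these data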;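 note: stock transfer was 300 nL into about 60 µL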
* hit, by the source's call.

For CCOC(=O)c1c(Cc2ccccc2)c[nH]c1C the results were HNF4A DNA FP 5.2, A1 inh -0.5, LANA-H2A inh 4.5, UCH37 inh -1.4, B2AR ag -7, Vif A3G 10% and E coli growth 0.62.
Screening O=C(c1cnn2c(C(F)F)cc(C3CC3)nc12)N1CCCC1 returned HNF4A DNA FP 0.9, A1 inh 1.1, LANA-H2A inh 0.0, UCH37 inh -4.2, B2AR ag -9, Vif A3G 3% and E coli growth 0.66.
For Cn1c(SCC(=O)Nc2ccccc2C(F)(F)F)nc2c(c1=O)SCC2 the results were HNF4A DNA FP 1.3, A1 inh 0.2, LANA-H2A inh 0.1, UCH37 inh 7.2, B2AR ag 0 and E coli growth 0.73.
`Cc1ccc(S(=O)(=O)N2CCOCC2)cc1NC(=O)COC(=O)c1cnccn1` gave HNF4A DNA FP -1.2, UCH37 inh 4.6, B2AR ag -8 and E coli growth 0.71.
For COc1cccc(NC(=S)N(CCN2CCCCC2)Cc2ccco2)c1 the results were HNF4A DNA FP 0.6, A1 inh 0.5, LANA-H2A inh 3.8, UCH37 inh 1.2, B2AR ag 3, Vif A3G 3% and E coli growth 0.69.
`CC1CCCN(C(=O)c2ccc(S(=O)(=O)N3CCC(c4nc5ccccc5s4)CC3)cc2)C1` (stereo not drawn) gave HNF4A DNA FP -3.6, A1 inh -0.4, LANA-H2A inh -4.2, UCH37 inh 2.8, B2AR ag -6 and E coli growth 0.72.
COc1ccccc1NS(=O)(=O)c1cc(NC(=O)CCC(=O)c2cccs2)ccc1Cl was read as HNF4A DNA FP 0.0, A1 inh 1.3, LANA-H2A inh 4.7, UCH37 inh -2.3, B2AR ag 3 and E coli growth 0.63.
CC(Oc1ccc(Br)cc1)C(=O)Nc1cc(Cl)ccc1N1CCN(C)CC1 (stereo not drawn) was read as HNF4A DNA FP 0.5, A1 inh 0.2, LANA-H2A inh 1.2, UCH37 inh 5.3, B2AR ag 2, Vif A3G -4% and E coli growth 0.66.
`CN1C(=O)NC(c2cccc(F)c2)C2=C1CC(C)(C)CC2=O` (stereo not drawn) gave HNF4A DNA FP 0.7, A1 inh -0.3, LANA-H2A inh -0.3, UCH37 inh 5.0, B2AR ag -3, Vif A3G 0% and E coli growth 0.69.
Screening COc1cc(NC(=S)Nc2ccc(S(=O)(=O)N3CCOCC3)cc2)cc(OC)c1OC returned HNF4A DNA FP -0.1, A1 inh 0.5, LANA-H2A inh 2.9, UCH37 inh 3.5, B2AR ag 5, Vif A3G -1% and E coli growth 0.64.
Screening Cc1ccc(CNC(=O)Cc2ccc(-n3c(=O)[nH]c4ccsc4c3=O)cc2)cc1 returned HNF4A DNA FP -0.2, A1 inh 1.0, LANA-H2A inh -2.9, UCH37 inh 2.1, B2AR ag -9, Vif A3G -8% and E coli growth 0.65.
For CN(Cc1ccccc1F)C(=O)C(Cc1ccccc1)NC(=O)c1ccccc1 (stereo not drawn) the results were HNF4A DNA FP -1.2, A1 inh -0.3, LANA-H2A inh -1.2, UCH37 inh 1.5, B2AR ag 16, Vif A3G -3% and E coli growth 0.71.
For C/C(=N\NC(=O)c1cccc(N/N=C(\C)c2ccncc2)c1)c1ccncc1 the results were HNF4A DNA FP 0.4, A1 inh 0.1, LANA-H2A inh -4.1, B2AR ag 8 and Vif A3G -2%.
`COc1cc(/C=N/n2c(C)nc3ccccc3c2=O)cc(OC)c1O` gave HNF4A DNA FP 1.7, A1 inh 0.0, LANA-H2A inh 0.1, B2AR ag -3 and Vif A3G -9%.
Screening O=C(C1CC(=O)N(c2ccccc2)C1)N1CCN(c2ccccc2F)CC1 (stereo not drawn) returned HNF4A DNA FP 1.3, A1 inh 0.6, LANA-H2A inh -1.0, UCH37 inh -2.2, B2AR ag -2 and E coli growth 0.69.
For O=C(O)COCc1nc2ccccc2[nH]1 the results were HNF4A DNA FP 0.5, A1 inh -0.6, LANA-H2A inh -6.2, UCH37 inh 0.1, B2AR ag 1, Vif A3G 1% and E coli growth 0.71.
Screening CC(=O)O/N=C(/C)c1ncc(C(F)(F)F)cc1N1CCOCC1 returned HNF4A DNA FP -3.2, A1 inh -1.5, LANA-H2A inh 4.9, B2AR ag -14 and Vif A3G -3%.
CCOC(=O)N1CCC(NC(=O)COc2cc(=O)n(C)c3ccccc23)CC1 was read as HNF4A DNA FP -2.6, LANA-H2A inh -2.8, UCH37 inh 3.5, B2AR ag -1, Vif A3G -1% and E coli growth 0.7.
For Cc1ccccc1Cn1cc(C)c(=O)[nH]c1=O the results were HNF4A DNA FP 3.3, A1 inh 0.0, LANA-H2A inh -4.2, UCH37 inh 2.0, B2AR ag -3, Vif A3G 1% and E coli growth 0.67.
`CCN1C(=O)[C@@H]2[C@@H](c3ccc(-c4cccc(Cl)c4)c(OC)c3)N3CCCC[C@@]3(C(=O)OC)[C@@H]2C1=O` gave HNF4A DNA FP 3.0, A1 inh 0.4, LANA-H2A inh -2.1, UCH37 inh 0.0 and B2AR ag 2.
Screening C/C(=N\NC(=O)C(O)(c1ccccc1)c1ccccc1)c1ccc(C)o1 returned HNF4A DNA FP 0.8, A1 inh 0.4, LANA-H2A inh -1.2 and B2AR ag 0.
Screening CC(C)CC(C(=O)O)N1C(=O)C2C3CC(C2C1=O)C1C(c2ccccc2)c2sc(=O)[nH]c2SC31 (stereo not drawn) returned HNF4A DNA FP 3.7, A1 inh 0.1, LANA-H2A inh -2.1, UCH37 inh 3.8, B2AR ag -3 and E coli growth 0.51*.
Screening O=C(NC(=S)Nc1ccc(F)cc1)c1ccc2c(c1)OCCO2 returned HNF4A DNA FP -2.0, A1 inh -0.9, LANA-H2A inh -4.7, UCH37 inh 3.1, B2AR ag 7, Vif A3G 1% and E coli growth 0.72.
`CC1(C)CC(=O)C(C2c3ccccc3S(=O)(=O)c3ccccc32)C(=O)C1` gave HNF4A DNA FP -0.8, A1 inh -0.3, LANA-H2A inh -4.3, UCH37 inh 2.7, B2AR ag 3, Vif A3G -4% and E coli growth 0.71.
COc1ccc2cc(C(=O)c3ccccc3)c(=O)oc2c1 was read as HNF4A DNA FP 1.4, A1 inh -1.5, LANA-H2A inh -1.4, UCH37 inh -0.7, B2AR ag 5, Vif A3G 11% and E coli growth 0.7.
Screening CCCCNc1c(-c2ccc(OC)c(SC(C)CC)c2)nc2cnccn12 (stereo not drawn) returned HNF4A DNA FP 7.5, UCH37 inh -78 and B2AR ag -12.
For CC(=O)c1ccc(NC(=O)CSc2nnc(NC(=O)CN3CCOCC3)s2)cc1 the results were HNF4A DNA FP 0.6, A1 inh 0.6, UCH37 inh 0.4, B2AR ag -1, Vif A3G 10% and E coli growth 0.74.
`COc1ccc(Cl)cc1C(=O)NNC(=O)CNC(=O)c1ccc(C)s1` gave HNF4A DNA FP 1.8, A1 inh 0.4, LANA-H2A inh 2.9, UCH37 inh 0.1, B2AR ag -1, Vif A3G -1% and E coli growth 0.71.
For S=c1[nH]nc(Cn2nnc3ccccc32)n1-c1ccc(Cl)cc1 the results were HNF4A DNA FP -1.1, A1 inh -0.4, LANA-H2A inh -3.1, UCH37 inh -1.0, B2AR ag -3, Vif A3G 1% and E coli growth 0.69.
Screening Cc1ccc(OCC(=O)NCCNC(=O)c2ccncc2)cc1C returned HNF4A DNA FP 0.1, A1 inh -0.3, LANA-H2A inh -1.5, UCH37 inh 3.4, B2AR ag -4 and E coli growth 0.71.
`Cc1cccc(NCc2n[nH]c(=S)n2-c2ccccc2)c1` gave HNF4A DNA FP 0.0, A1 inh -0.2, LANA-H2A inh -7.3, UCH37 inh 1.9, B2AR ag 4, Vif A3G 32% and E coli growth 0.67.
Screening COc1cccc(Nc2nc(-c3ccccc3O)nc3ccccc23)c1 returned HNF4A DNA FP 2.2, A1 inh 0.0, LANA-H2A inh 3.0, UCH37 inh 5.2, B2AR ag -6, Vif A3G -23% and E coli growth 0.63.
Screening O=C(CNC(=O)c1ccccc1F)Nc1ccc2c(c1)CCC2 returned HNF4A DNA FP 2.5, A1 inh 0.3, LANA-H2A inh -1.3, UCH37 inh 3.0, B2AR ag 3, Vif A3G -1% and E coli growth 0.65.
For CN(C)N1C(=O)CC(NNC(=O)c2ccncc2)C1=O (stereo not drawn) the results were HNF4A DNA FP 4.0, A1 inh 0.7, LANA-H2A inh -3.0, UCH37 inh 0.1, B2AR ag -4, Vif A3G inconclusive and E coli growth 0.65.
`CCn1c(SCc2nc3scc(-c4ccccc4)c3c(=O)[nH]2)nnc1-c1cccs1` gave HNF4A DNA FP 12, A1 inh -0.4, LANA-H2A inh -0.3, UCH37 inh 4.6, B2AR ag -6 and E coli growth 0.67.
For CC(=O)OC1COC(N2CCc3cc([N+](=O)[O-])ccc32)C(OC(C)=O)C1OC(C)=O (stereo not drawn) the results were HNF4A DNA FP 0.5, A1 inh 0.1, LANA-H2A inh 2.4, UCH37 inh 0.4, B2AR ag 4, Vif A3G 1% and E coli growth 0.76.
`CC1Cc2ccccc2N1S(=O)(=O)c1ccc2c(c1)n(C)c(=O)c(=O)n2C` (stereo not drawn) gave HNF4A DNA FP -3.3, A1 inh 1.5, LANA-H2A inh 1.8, UCH37 inh 2.3, B2AR ag -2, Vif A3G -4% and E coli growth 0.75.
Screening CC1=NN(C2=NS(=O)(=O)c3ccccc32)C(C)(O)C1 (stereo not drawn) returned HNF4A DNA FP 0.8, A1 inh 0.6, LANA-H2A inh 7.8, UCH37 inh 5.9, B2AR ag 0, Vif A3G -2% and E coli growth 0.68.
For Cc1occc1C(=O)Nc1ccc2ccccc2c1 the results were HNF4A DNA FP -1.1, A1 inh -6.5, LANA-H2A inh 0.5, UCH37 inh -6.5, B2AR ag 0, Vif A3G 0% and E coli growth 0.7.

Already shown: 6 of the compounds above.
Screening C/C(=N\NC(=O)C(O)(c1ccccc1)c1ccccc1)c1ccc(C)o1 returned HNF4A DNA FP 0.8, A1 inh 0.4, LANA-H2A inh -1.2 and B2AR ag 0.
Screening CC(C)CC(C(=O)O)N1C(=O)C2C3CC(C2C1=O)C1C(c2ccccc2)c2sc(=O)[nH]c2SC31 (stereo not drawn) returned HNF4A DNA FP 3.7, A1 inh 0.1, LANA-H2A inh -2.1, UCH37 inh 3.8, B2AR ag -3 and E coli growth 0.51*.
Screening O=C(NC(=S)Nc1ccc(F)cc1)c1ccc2c(c1)OCCO2 returned HNF4A DNA FP -2.0, A1 inh -0.9, LANA-H2A inh -4.7, UCH37 inh 3.1, B2AR ag 7, Vif A3G 1% and E coli growth 0.72.
`CC1(C)CC(=O)C(C2c3ccccc3S(=O)(=O)c3ccccc32)C(=O)C1` gave HNF4A DNA FP -0.8, A1 inh -0.3, LANA-H2A inh -4.3, UCH37 inh 2.7, B2AR ag 3, Vif A3G -4% and E coli growth 0.71.
COc1ccc2cc(C(=O)c3ccccc3)c(=O)oc2c1 was read as HNF4A DNA FP 1.4, A1 inh -1.5, LANA-H2A inh -1.4, UCH37 inh -0.7, B2AR ag 5, Vif A3G 11% and E coli growth 0.7.
Screening CCCCNc1c(-c2ccc(OC)c(SC(C)CC)c2)nc2cnccn12 (stereo not drawn) returned HNF4A DNA FP 7.5, UCH37 inh -78 and B2AR ag -12.

Bioassay records as filed in PubChem.

Rows were taken by chance. About 2.1% of those tested had a hit in this group.
